H5N1 CPE: MDCK cell protection from H5N1 avian flu; AID 740; 96,000 compounds, 0.07% hits; inhibition, % at 50 µM; cytopathic effect, luminescence, 72 h; hits give high values; no value below 0 was filed and about half of the inactive calls have no number; reference of the scale not given here; in the data active = inhibition above about 25%
* hit, by the source's call; i = inactive.

Structure	H5N1 CPE
CS(=O)(=O)NCCSCc1c(F)cccc1Cl	0.1
Cc1ccc2oc(=O)n(CC(=O)O)c2c1	0.5
O=C(CCCCCn1c(=O)[nH]c2ccsc2c1=O)N1CCN(C2CCCCC2)CC1	1.5
C=CCSc1nnc(-c2ccccc2N=Cc2c(C)[nH]n(-c3ccccc3)c2=O)c(=O)[nH]1	i
Fc1ccc(CSc2nsc(SCc3ccc(F)cc3)n2)cc1	i
CCSc1nc2nc(C)cc(C)n2n1	1.4
Cc1ccc(-n2nnc3c(=O)n(CC(=O)NCC4CCCO4)cnc32)cc1 (stereo not drawn)	i
O=C(c1ccc(S(=O)(=O)N2CCCC2)cc1)N1CCCc2ccccc21	0.6
Cc1nnc(-c2ccccc2)c[n+]1[O-]	i
Cc1cccc(NC(=O)CNc2cc(C)ccc2C)c1	5.9
Cc1cccc(N=C(N2CCOCC2)P(=O)(N2CCOCC2)N2CCOCC2)c1	0.0
COc1cc(-c2nnc(-c3ccc(S(=O)(=O)c4ccccc4)cc3)o2)cc(OC)c1OC	i
Cc1ccc(CS(=O)(=O)c2ccccc2-c2nnc(-c3ccc(Cl)cc3)o2)cc1	i
Cc1cc(C)n2nc(C(=O)Nc3ccc(S(=O)(=O)N4CCCCC4)cc3)nc2n1	0.9
Cc1nc(NC(=O)CC(C)C)sc1-c1csc(Nc2ccc(Cl)cc2)n1	i
O=C(Nc1c(Cl)cccc1Cl)C1CCC1	0.3
CC(C)(C)NS(=O)(=O)c1ccc2nc(NC(=O)Cc3cccs3)sc2c1	i
O=C(Cn1nnc(-c2cccc(C(F)(F)F)c2)n1)NC1CCCC1	i
NC(=O)c1ccsc1NC(=O)c1ccc(S(=O)(=O)N2CCCCC2)cc1	i
O=C(CC(SCCO)c1ccc(F)cc1)c1ccco1 (stereo not drawn)	i
Cc1ccc(N(C(=O)Cn2nnc(-c3ccc(F)cc3)n2)C(CC(C)C)C(=O)NCC2CCCO2)cc1 (stereo not drawn)	i
COc1ccc(C(=O)N2CCC(C(=O)Nc3ccc4c(c3)OCCO4)CC2)cc1	i
CCOc1cccc2cc(-c3nnc(NCc4ccco4)s3)c(=O)oc12	i
CCCC[n+]1ccn(-c2nc3ccccc3nc2[N-]S(=O)(=O)c2ccccc2)c1	i
Cc1nc2ccccc2n1CC(O)Cn1c2ccccc2c2ccccc21 (stereo not drawn)	i
O=C(Cn1cccc1)N1CCN(C(c2ccccc2)c2ccccc2)CC1	1.3
COc1ccccc1-n1c(=O)oc2ccc(Cl)cc2c1=O	0.7
O=C(c1ccc(Br)o1)N1CCN(c2ccc3nnc(-c4ccc(F)cc4)n3n2)CC1	1.8
CC1CCCCN1C(=O)CN1C(=O)CN(C)C(=O)c2ccccc21 (stereo not drawn)	0.2
CC1=C(C(=O)Nc2ccc(Br)cc2)C(c2ccco2)NC(=O)N1 (stereo not drawn)	0.1
CSCCC(NS(=O)(=O)c1ccc2ccccc2c1)C(=O)O (stereo not drawn)	i
COc1cc(C(=O)Nc2sc3c(c2C(=O)NCc2ccco2)CCCC3)cc(OC)c1OC	i

Five compounds drawn at random from the list so far, as already listed:
Structure	H5N1 CPE
COc1ccccc1-n1c(=O)oc2ccc(Cl)cc2c1=O	0.7
CC1CCCCN1C(=O)CN1C(=O)CN(C)C(=O)c2ccccc21 (stereo not drawn)	0.2
CC1=C(C(=O)Nc2ccc(Br)cc2)C(c2ccco2)NC(=O)N1 (stereo not drawn)	0.1
O=C(c1ccc(Br)o1)N1CCN(c2ccc3nnc(-c4ccc(F)cc4)n3n2)CC1	1.8
O=C(Cn1cccc1)N1CCN(C(c2ccccc2)c2ccccc2)CC1	1.3

Going on with the list:
Structure	H5N1 CPE
CCC(C)(C)n1nnnc1C(C(C)C)N(CCN1CCOCC1)Cc1cc2cccc(C)c2[nH]c1=O (stereo not drawn)	1.9
Cc1cc(C)c(OCCOCCN2CCNCC2)c(C)c1	i
CC(C)(C)NS(=O)(=O)c1ccc(OCC(=O)NCCC2=CCCCC2)cc1	0.2
CCN1CCN(CCNC(=O)c2ccc(CS(=O)(=O)c3ccccc3C)o2)CC1	2.4
O=C(NCc1ccc(F)cc1)C1CCN(S(=O)(=O)N2CCC3(CC2)OCCO3)CC1	1.1
Cc1nc(SCC(=O)N2CCc3ccccc32)n[nH]1	0.1
CSC1=N/C(=C\c2ccccc2F)C(=O)S1	0.1
CCOc1ccc2nc(N3CCCN(C(=O)Nc4ccccc4C)CC3)c(C#N)cc2c1	i
Cc1ccc(SCCNC(=O)C(CO)(CO)CO)cc1	0.2
O=C(CSc1ncnc2c1oc1ccccc12)c1cccs1	i
Cc1ccc(Nc2ncnc3c2oc2ccccc23)cc1	2.2
COc1cc(OC)cc(C(=O)NCCSCc2ccco2)c1	i
CC1CCN(C(=S)c2ccc3c(c2)OCO3)CC1	i
O=C(COC(=O)CSc1nnc(-c2ccc(Cl)cc2)o1)NCc1ccc2c(c1)OCO2	1.4
CNC(=O)/C(C#N)=c1\s/c(=C/C(=O)OC)c(=O)n1-c1ccccc1	i
CN1c2ccccc2C(O)=C(C(=O)Nc2ccccc2)S1(=O)=O	i
Cc1ccc(OCC(O)CN2CCN(CC(O)COC(C)C)CC2)c(C(C)(C)C)c1 (stereo not drawn)	i
Cc1cccc(N2CCN(S(=O)(=O)c3ccc4[nH]c(=O)c(=O)[nH]c4c3)CC2C)c1 (stereo not drawn)	0.5
CC12CCC(C(=O)NCCCn3ccnc3)(OC1=O)C2(C)C (stereo not drawn)	0.9
COc1ccc(CCNC(=O)c2cc3ccccn3n2)c(OC)c1OC	0.4
COCCNc1ncnc2c1cnn2-c1ccc(Cl)cc1	i
COc1ccc(C)cc1S(=O)(=O)N1CCC(C(=O)NCCC2=CCCCC2)CC1	i
O=C(CCC1CCCCC1)NCc1cccs1	0.5
CCN(Cc1ccccc1)C(=O)COc1cc(=O)n(CC)c2ccccc12	1.2

Structures shown so far that contain two or more sulfur atoms, in the order listed:
Structure	H5N1 CPE
CS(=O)(=O)NCCSCc1c(F)cccc1Cl	0.1
Fc1ccc(CSc2nsc(SCc3ccc(F)cc3)n2)cc1	i
Cc1nc(NC(=O)CC(C)C)sc1-c1csc(Nc2ccc(Cl)cc2)n1	i
CC(C)(C)NS(=O)(=O)c1ccc2nc(NC(=O)Cc3cccs3)sc2c1	i
NC(=O)c1ccsc1NC(=O)c1ccc(S(=O)(=O)N2CCCCC2)cc1	i
CSCCC(NS(=O)(=O)c1ccc2ccccc2c1)C(=O)O (stereo not drawn)	i
CSC1=N/C(=C\c2ccccc2F)C(=O)S1	0.1
O=C(CSc1ncnc2c1oc1ccccc12)c1cccs1	i

More records follow.
Structure	H5N1 CPE
NC(=O)c1cc2ccc(O)cc2oc1=NCc1ccccc1	0.1
COc1ccc(C2(C(=O)Nc3ccc(C(=O)N4CCOCC4)cc3)CCOCC2)cc1	0.6
O=C(O)C1CSC2(c3ccc4c(c3)OCCO4)CCC(=O)N12 (stereo not drawn)	0.5
Cc1nc2cc(-c3ccc(Cl)cc3)nn2c(C)c1CCC(=O)NCc1ccco1	0.1
CNc1csc(C)c(C)c1=O	i
CC1(C)CC(=O)C=C(Nc2ccc(S(N)(=O)=O)cc2)C1	i
CCCNC(=O)c1csc2c1CCCCC2	i
CSCCC(NC(=O)C1CCC(C)CC1)C(=O)NCCN1CCOCC1 (stereo not drawn)	i
CCCOc1ccc(N2C(=O)CC(SC(=NC)Nc3ccc(F)cc3)C2=O)cc1 (stereo not drawn)	0.1
C/C(=N\NC(=O)c1c(Br)c(C)nn1C)c1cccc(NC(=O)C2CCC2)c1	i
O=S(=O)(Nc1ccc(N2CCCCC2)cc1)c1cccc2cccnc12	0.3
O=C(N/N=C/c1cccc([N+](=O)[O-])c1)c1ccc2nc[nH]c2c1	0.6
Cc1cccc(N2CC(C)Cn3c2nc2c3c(=O)n(CC(=O)OCc3ccccc3)c(=O)n2C)c1 (stereo not drawn)	0.2
CCS(=O)(=O)c1ccc2oc(SCC(=O)NCCC3=CCCCC3)nc2c1	10.4
N=c1nc(SCCC(=O)O)ss1	0.2
CC1CCN(CCCCOc2ccccc2[N+](=O)[O-])CC1	0.0

Other results
mol	H5N1 CPE
O=C(O)CCc1ccc(-c2ccc(F)cc2)n1CC1CCCO1 (stereo not drawn)	1.6
COc1cc(OC)c(OC)cc1CN1CCCC(C(=O)N2CCCCC2)C1 (stereo not drawn)	0.7
Cc1ccc(Cn2ccc(NC(=O)c3cc4nc(-c5ccco5)cc(C(F)(F)F)n4n3)n2)cc1	i
CCOC(=O)N1CCC2(CC1)C(C(=O)C13CC4CC(CC(C4)C1)C3)C2(C#N)C#N (stereo not drawn)	0.5
CC1=C(C(=O)Nc2ccccc2)C(c2ccccc2)N2C(=O)CSC2=N1 (stereo not drawn)	0.1
CC(C)Cn1c(CN(C)Cc2ccccc2)nc2c1c(=O)n(C)c(=O)n2C	2.1
COc1ccccc1NC(=O)CC(=O)CSc1nnc(-c2ccc(C)cc2)n1C	1.3
Cc1cc(NS(=O)(=O)c2ccc(NC(=O)NC(C)(C(F)(F)F)C(F)(F)F)cc2)no1	i
CCc1nnc(NC(=O)CSc2nnc(Cc3cccn3C)n2CCOC)s1	3.9
CCN(CC)c1ccc(C(=O)OCc2cc(=O)oc3cc(O)ccc23)cc1	1.3
CC1CCCCC1NC(=O)C1CCN(S(=O)(=O)N2CCC3(CC2)OCCO3)CC1 (stereo not drawn)	i
CN(C)CCN1C(=O)C(O)=C(C(=O)c2cc3ccccc3o2)C1c1ccc(N(C)C)cc1 (stereo not drawn)	1.9
CN(CC(=O)NCCc1ccccc1)S(=O)(=O)c1cccs1	0.6
CCOc1ccc(C=O)cc1CN1CCCCC1	0.5
CC(C)CNc1nc2c(c(=O)n(C)c(=O)n2C)n1Cc1cccc(Br)c1	i
C/C(Cl)=C\Cn1c(NCCCn2ccnc2)nc2c1c(=O)n(C)c(=O)n2C	1.8
Oc1ccc(-c2cn3c(n2)SCC3)cc1O	i
CCOc1ccc(NC(=O)CNc2ccc(C)cc2Cl)cc1	0.0
CC(NC(=O)C1CCCN(C(=O)N(C)C)C1)c1ccccc1 (stereo not drawn)	i
CCCCNC(=O)C1c2cc(OC)c(OC)cc2C(=O)N(C)C1c1ccc(OC)cc1 (stereo not drawn)	0.3
CN(C)c1nc(OCC(=O)NC(C)(C)C)nc(N(C)C)n1	0.6
Cc1cc(C)nc(Sc2nc(C)nc3c2oc2ccccc23)n1	6.3
Cc1cccc(NC(=O)C2CCCN(C(=O)Nc3ccccc3)C2)c1C (stereo not drawn)	0.0
COc1cccc(C(=O)N(Cc2ccco2)Cc2cc3cccc(C)c3[nH]c2=O)c1	i
COC(=O)CCCCC1SCC(NC(=O)OC)C1NC(=O)OC (stereo not drawn)	i
COc1ccccc1CNC(=O)C1CCN(S(C)(=O)=O)CC1	0.9
CN(C)c1ccc(C(=O)n2nnc3ccccc32)cc1	i
C=CCC1(CN2CCCCCC2=O)C(=O)NC(=O)NC1=O	0.5
CCc1ccc(-c2nc(CN3CCCC(C(=O)NCCc4ccc(OC)c(OC)c4)C3)c(C)o2)cc1 (stereo not drawn)	0.6
Cc1cc(C)n2nc(SCc3nnc(SCc4ccccc4C)s3)nc2n1	2.8
Cc1ccc(NC(=O)/C(=C\c2cccnc2)NC(=O)c2ccco2)cc1	0.3
COc1ccc(NC(=O)CSc2nnc(-c3ccccn3)n2N)cc1	i
CCOc1cc(-c2cc(-c3ccccc3)nc(N)c2C#N)ccc1O	i
COC(=O)CCC(=O)Nc1ccc(C)cc1OC(=O)CCC(=O)OC	0.8
COc1ccc(NC(=O)CSc2nc3c(c(=O)[nH]2)CCC3)cc1OC	i
CC([NH2+][O-])C(C)(C)NO (stereo not drawn)	i
CC(=O)c1cccc(NC(=O)c2ccc(NS(C)(=O)=O)cc2)c1	0.9
O=C1CC(c2ccccc2)n2nc(NS(=O)(=O)c3ccccc3)nc2N1 (stereo not drawn)	0.3
COc1cccc(Cn2nnc3c(=O)[nH]c(C4CCCN(C(=O)c5ccccc5Cl)C4)nc32)c1 (stereo not drawn)	2.3
COc1ccc(-c2noc(-c3ccccc3Cl)n2)cc1OC	i
COC(=O)CCSc1nccn1Cc1ccccc1	i
CCCn1c(=O)c2c(C(F)(F)F)cc(-c3ccco3)nc2n(CCC)c1=O	7.4
O=C(O)CCCC(=O)NCCCCc1ccccc1	1.1
CCC(C)(C)NC(=O)C(c1cccn1C)N(C(=O)Cn1nnc2ccccc21)c1ccc(F)cc1 (stereo not drawn)	i
O=C(Cn1c(-c2ccc(Cl)cc2)noc1=O)N1CCN(c2ccccc2F)CC1	0.8
COC(=O)CSc1nc(C(C)C)nc2ccccc12	0.8
CC(=O)NCC(=O)N(c1ccccc1)C1(C(=O)NC2CCCCC2)CCCCC1	i
Cc1cc(OCC(=O)NCc2nc(-c3ccccc3)no2)c(C)cc1Br	i
CCOC(=O)CNC(=O)c1cnn2cccnc12	0.3
CN(C(=O)c1ccc2c(=O)n3c(nc2c1)CCCCC3)c1ccccc1	i

Going on with the list.
mol	H5N1 CPE
COc1ccccc1-n1c(SCC(=O)N2CCCCC2)nnc1-c1ccccc1O	i
CCCCCC(=O)N/N=C/c1cccs1	i
CCOC(=O)c1ccc(CSc2nnc(-c3ccncc3)n2N)cc1	1.9
Cn1c(=O)n(CCc2ccccc2)c(=O)c2c1nc1n2CCCN1CCc1ccccc1	i
CC(=O)C1CCN(Cc2ccccc2)CC1	0.4
COc1ccc(NC(=O)c2ccccc2NC(=O)CSc2ccc(C)cc2)cc1	i
COc1ccccc1Cc1nc(-c2ccc(C)cc2)no1	i
C=C(C)Cn1c(C(C)NC(=O)CCC)nc2ccccc21 (stereo not drawn)	0.5
CCOC(=O)c1ccc(N2C(=O)CC(Nc3ccc(CCO)cc3)C2=O)cc1 (stereo not drawn)	1.4
N=C1C(c2ccc(Br)cc2)=C(O)C2CCc3ccccc3N12 (stereo not drawn)	i
O=C(O)c1cccnc1SCCc1ccccc1	0.2

Screening data from PubChem.

These rows are one share of the data (hit frequency here may not be typical).
